Assay outcomes deposited in PubChem by several laboratories.
PABP polyA inh: PABP-poly(A) binding inhibition | AID 2014 | 1% of 290,000 active | inhibition, % at 35 µM | PABP-poly(A) RNA binding, fluorescence polarization | P11940;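 active = 50% or more with normal probe brightness, or confirmed in later tests; inconclusive = above 50% with abnormal brightness, or retests that disagree; inactive = below 50% or failed in later tests; about a fifth of its hits are not listed in these tables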;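 note: calls also rest on retests at 20 µM and on dose response follow-up; controls were probe without protein and protein plus probe with vehicle; some compounds called inactive have numbers as strong as hits; many hits fall short of the cut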
Rce1 inh: blocks yeast Ras-converting enzyme | AID 2563 | calls only | 0.27% of 290,000 active | yeast membranes, quenched prenylated peptide cleavage fluorescence | Q03530;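 active = fall in fluorescence gain of 50% or more versus controls, with final raw signal at or below 3038400; inconclusive = same 50% fall but final raw signal above 3038400; inactive = fall in fluorescence gain under 50%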;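 note: plate controls were neutral control wells for no effect and wells lacking membranes for full effect; tested at 10 µM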
Target sequence (Q03530 whole entry, looked up): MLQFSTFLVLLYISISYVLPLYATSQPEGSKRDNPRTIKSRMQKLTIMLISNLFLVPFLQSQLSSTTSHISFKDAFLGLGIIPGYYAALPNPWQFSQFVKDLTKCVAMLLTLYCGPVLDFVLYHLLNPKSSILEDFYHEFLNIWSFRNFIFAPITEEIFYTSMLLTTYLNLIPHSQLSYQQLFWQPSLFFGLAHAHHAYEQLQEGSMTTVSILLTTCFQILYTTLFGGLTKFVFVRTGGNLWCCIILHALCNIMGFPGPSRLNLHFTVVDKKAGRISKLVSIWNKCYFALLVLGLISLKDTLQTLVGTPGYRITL
eIF4H inh: inhibitors of RNA binding by human eIF4H. Q15056. eIF4H fluorescence polarization binding assay. inhibition, % at 35 µM. 0.94% of 290,000 active. AID 2012;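 active = 50% or more with normal probe brightness, or confirmed in later tests; inconclusive = above 50% with abnormal brightness, or retests that disagree; inactive = below 50% or failed in later tests; about a fifth of its hits are not listed in these tables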;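 note: calls also rest on retests at 20 µM and on dose response follow-up; 0% = protein and probe with vehicle and 100% = probe without protein; strong numbers were not always called active; many hits fall short of the cut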
MT1-MMP act inh: inhibitors of human MT1-MMP activation | P50281 | HT1080 RFP-PRO-GFP cells, GFP/RFP ratio fluorescence, overnight; percent of plate control window, DMSO zero | AID 651647 | GFP/RFP ratio change, % at 20 µM | 0.061% of 360,000 active;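 active = GFP/RFP ratio change of at least 30% with cell ATP level not reduced by more than half and red fluorescence within 50% of control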; note: strong numbers were not always called active
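Material – HT1080 RFP-PRO-GFP cells · Control set – DMSO wells and RFP-L50D-GFP cells · Incubation – overnight cell settling, then overnight compound exposure, 37 °C, 5% CO2 · Compound dosing – single-point 20 µM compound, 1% DMSO · Read-out – GFP/RFP fluorescence ratio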
Yeast UUG start: alters start codon recognition fidelity in yeast | activity score, % at 18.7 µM | S. cerevisiae UUG-firefly luciferase reporter, luminescence/redox ratio | 0.13% of 350,000 active;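 active = replicate mean at a twofold rise or more, about +100% in these data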;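 note: firefly luciferase made from a UUG start codon reports start codon fidelity; reporter light over untreated wells divided by growth signal over untreated wells; some hits fall short of that in this replicate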
CSC inhib: blocks cancer stem cells; cancer stem cell-like cells viability, luminescence; 1.1% of 300,000 active; inhibition, % at 7.5 µM; AID 2717;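 active = mean at 75% or more and at least half the replicates too; inconclusive = mean and replicates disagree; tested in HMLE shEcad cells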;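 note: 0% = median of negative and 100% = median of positive control wells; the first replicate is given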
HIV Env fusion: inhibitors of HIV Env-mediated cell fusion. HeLa-JRFL Env/CEM21 cell fusion, luciferase. inhibition, % at 12.3 µM. 1.1% of 360,000 active. AID 651610;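 active = mean replicate inhibition score of at least 50 and every replicate individually at or above 50; inconclusive = only one of the two criteria met; inactive = mean below 50 and not all replicates reaching 50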;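 note: 0% = plate neutral controls and 100% = maraviroc near 300 nM; one replicate is shown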
MT1-MMP act inh RFP: also measured in MT1-MMP act inh; calls as there; RFP signal change, %; measured here: RFP expression control read;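 0 = vehicle wells; hits needed this value within 50% of zero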
Active calls of the source: *; i = inactive; u = inconclusive; x = not tested or not shown; [ ] = dose if it differs, or a comment. This is a subset; count on the stated rates, not on these rows.

SMILES	PABP polyA inh	Rce1 inh	eIF4H inh	MT1-MMP act inh	MT1-MMP act inh RFP	Yeast UUG start	CSC inhib	HIV Env fusion
O=C(N/N=C\c1c[nH]c2ccccc12)c1ccc(O)cc1	4	i	-4	-1	-1	-9	3	4
O=[N+]([O-])c1cccc(NC(=S)N2CCN(c3ccccn3)CC2)c1	-1	i	10	6	0	-14	-9	12
COC(=O)Cn1c(-c2ccc(OC)cc2)c(-c2ccc(OC)cc2)nnc1=O	-10	i	-12	-1	-2	6	-23	8
O=C(NCc1cccnc1)C(=O)NCC1OCCN1S(=O)(=O)c1cc(F)ccc1F (stereo unspecified)	-4	i	4	9	5	-26	3	2
CC(OC(=O)c1ccc(F)cc1)C(=O)Nc1nc(-c2cccc([N+](=O)[O-])c2)cs1 (stereo unspecified)	-6	i	-12	4	-4	-17	-1	x
CCCn1nnc(NC(=O)COc2ccccc2Cl)n1	0	i	-12	3	1	-4	-4	x
CC(C)(C)c1ccc(-n2ncc3c2CCCC3NC(=O)CN2CCCC2=O)cc1 (stereo unspecified)	-8	i	-5	-2	-26	-7	-2	68*
O=C1NC(c2ccc(Br)cc2)=N/C1=C/c1ccco1	4	i	u	-2	1	-9	-7	-52
NC(=S)Nc1nc2ccccc2[nH]c1=O	5	i	4	x	x	x	-6	x
CCOC(=O)N1CCN(C(=O)CCN2C(=O)/C(=C\c3cccc(OC)c3)SC2=S)CC1	3	i	-4	1	3	-13	x	5
COc1ccc(/C=N/NC(=O)c2[nH]c3ccc(Br)cc3c2-c2ccccc2)c(C(=O)O)c1OC	7	i	-8	-3	3	5	41	7
Cc1cc(C)c(C(=O)c2ccc(C(=O)NC(C)(C)C)cc2)c(C)c1	-10	i	-8	1	0	-12	7	-10
O=C(NCc1ccccc1)C1CCN(C(=O)NCc2ccccc2)CC1	-11	i	-2	1	2	-18	-2	-39
O=C(COc1ccc([N+](=O)[O-])cc1)NNC(=S)NC(=O)c1ccc(Br)cc1	10	i	5	4	3	x	26	-1
O=C(CC1CCCCC1)Nc1c2c(nn1-c1ccc(F)cc1)CS(=O)(=O)C2	7	i	1	-2	0	4	-2	4
CN(C(=O)COn1nnc2ccc(Cl)cc21)C1CCS(=O)(=O)C1 (stereo unspecified)	x	x	x	3	0	-16	-7	-13
Cn1c(SCCC#N)nnc1-c1ccccc1F	7	i	-6	-1	2	-9	-10	-3
CCc1ccc(C(=O)/C=C2\Sc3ccccc3NC2=O)cc1	-4	i	8	-1	10	-9	0	-52
Nc1nnc(SCC(=O)NNC(=O)c2ccc(Cl)cc2)s1	x	x	x	-8	-4	-28	-8	x
O=C(NCc1nnc(SCC(=O)N2CCOCC2)o1)c1ccccc1	x	x	x	0	1	-5	x	u
C=CCn1c(SCc2n[nH]c(=S)n2-c2ccccc2)nnc1-c1ccccc1	7	i	-7	2	4	-12	-16	-6
Cc1ccc(S(=O)(=O)Oc2ccc(/C=C3\C(=N)N4N=C(S(C)(=O)=O)SC4=NC3=O)cc2)cc1	12	i	12	4	5	3	-4	6
O=C(C[C@H]1CC[C@@H](NC(=O)Cc2cccnc2)[C@@H](CO)O1)NCc1ccc2c(c1)OCO2	x	x	x	2	6	-1	x	12[16.7 µM]
COc1ccc(CCNC(=O)N[C@@H](Cc2ccccc2)C(=O)O)cc1	-3	i	-3	3	3	-7	3	4
COc1ccc(CCC(=O)NCCCNC(=O)CCc2ccc(OC)cc2)cc1	11	i	-10	0	0	x	-5	20

Remaining list, next part.
SMILES	PABP polyA inh	Rce1 inh	eIF4H inh	MT1-MMP act inh	MT1-MMP act inh RFP	Yeast UUG start	CSC inhib	HIV Env fusion
CCn1c(SCc2ccc(C#N)cc2)nnc1-c1cccc(Cl)c1	-6	i	-4	5	-3	-14	0	x
O=C1CC(c2ccccc2)CC(=O)C1Sc1ccc(Cl)cc1 (stereo unspecified)	-3	i	-1	-7	-5	14	-4	10
COc1ccc(CC(=O)N2CCC(Nc3nc4ccccc4n3Cc3ccc(F)cc3)CC2)cc1	-8	i	-11	2	-6	10	14	-214
CCC(CC)C(=O)N1N=C(c2ccc(NS(C)(=O)=O)cc2)CC1c1ccc(C)cc1 (stereo unspecified)	-3	u	-12	-9	-11	x	6	17
CC(=O)N1c2ccc(S(=O)(=O)N3CCC(C(=O)NCc4ccc(Cl)cc4)CC3)cc2CC1C (stereo unspecified)	x	i	x	2	-7	5	-1	-12
COc1ccc(OC)c(S(=O)(=O)N2CCN(C(=O)NC3CCCCC3)CC2)c1	x	x	x	21	2	10	2	x
CCCOc1ccc(C(=O)NC(=S)N2CCN(c3ncc4c(=O)c(C(=O)O)cn(CC)c4n3)CC2)cc1	x	x	x	-6	-5	-22	x	-3
CCOC(=O)C(C)Sc1nc2c(cnn2-c2ccc(C)cc2)c(=O)[nH]1 (stereo unspecified)	-1	x	2	-7	-3	-9	49	-21

As a short view, part of the list above.
SMILES	PABP polyA inh	Rce1 inh	eIF4H inh	MT1-MMP act inh	MT1-MMP act inh RFP	Yeast UUG start	CSC inhib	HIV Env fusion
Nc1nnc(SCC(=O)NNC(=O)c2ccc(Cl)cc2)s1	x	x	x	-8	-4	-28	-8	x
O=C(NCc1nnc(SCC(=O)N2CCOCC2)o1)c1ccccc1	x	x	x	0	1	-5	x	u
C=CCn1c(SCc2n[nH]c(=S)n2-c2ccccc2)nnc1-c1ccccc1	7	i	-7	2	4	-12	-16	-6
Cc1ccc(S(=O)(=O)Oc2ccc(/C=C3\C(=N)N4N=C(S(C)(=O)=O)SC4=NC3=O)cc2)cc1	12	i	12	4	5	3	-4	6
O=C(C[C@H]1CC[C@@H](NC(=O)Cc2cccnc2)[C@@H](CO)O1)NCc1ccc2c(c1)OCO2	x	x	x	2	6	-1	x	12[16.7 µM]
COc1ccc(CCNC(=O)N[C@@H](Cc2ccccc2)C(=O)O)cc1	-3	i	-3	3	3	-7	3	4
COc1ccc(CCC(=O)NCCCNC(=O)CCc2ccc(OC)cc2)cc1	11	i	-10	0	0	x	-5	20
CCn1c(SCc2ccc(C#N)cc2)nnc1-c1cccc(Cl)c1	-6	i	-4	5	-3	-14	0	x
O=C1CC(c2ccccc2)CC(=O)C1Sc1ccc(Cl)cc1 (stereo unspecified)	-3	i	-1	-7	-5	14	-4	10
COc1ccc(CC(=O)N2CCC(Nc3nc4ccccc4n3Cc3ccc(F)cc3)CC2)cc1	-8	i	-11	2	-6	10	14	-214
CCC(CC)C(=O)N1N=C(c2ccc(NS(C)(=O)=O)cc2)CC1c1ccc(C)cc1 (stereo unspecified)	-3	u	-12	-9	-11	x	6	17
CC(=O)N1c2ccc(S(=O)(=O)N3CCC(C(=O)NCc4ccc(Cl)cc4)CC3)cc2CC1C (stereo unspecified)	x	i	x	2	-7	5	-1	-12
